Screening data: PubChem, National Center for Advancing Translational Sciences (NCATS)
GLA inh pH 4.5 = alpha-galactosidase A (human) inhibition, pH 4.5; P06280; purified enzyme, 4-MU-alpha-Gal fluorescence, pH 4.5; activity change, negative = inhibition, % at 105 µM; 230,000 tested, under 10 active; AID 1467; inconclusive = small, poorly fitted or top-dose-only inhibition, or a rising curve; inactive = flat fitted curve, though single readings scatter; no compound was filed as active;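 also: 0% = full activity with enzyme and -100% = basal without enzyme; dose as in the result columns while the protocol names 77 µM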
Target sequence (P06280 whole entry, looked up): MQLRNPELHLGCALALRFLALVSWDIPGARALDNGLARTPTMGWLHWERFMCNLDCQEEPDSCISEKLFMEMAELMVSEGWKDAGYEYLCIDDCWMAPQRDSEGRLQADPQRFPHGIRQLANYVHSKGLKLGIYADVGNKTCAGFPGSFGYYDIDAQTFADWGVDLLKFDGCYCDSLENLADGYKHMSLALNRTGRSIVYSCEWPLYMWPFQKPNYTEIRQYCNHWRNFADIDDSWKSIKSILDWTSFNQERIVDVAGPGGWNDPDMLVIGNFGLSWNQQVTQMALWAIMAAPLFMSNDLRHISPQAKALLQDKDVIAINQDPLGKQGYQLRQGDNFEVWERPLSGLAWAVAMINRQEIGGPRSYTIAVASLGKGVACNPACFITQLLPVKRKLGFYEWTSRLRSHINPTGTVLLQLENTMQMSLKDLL
miR-21 reporter = raises the signal of a miR-21 reporter. AID 2288. 340,000 tested, under 10 active. HeLa miR-21 FLuc reporter, luciferase, 48 h. Potency, µM (series often up to 38.3 µM), for inactives: at the highest dose reporter change, positive = more light; active = well fitted rising curve with a large enough effect; inconclusive = small, poorly fitted or top-dose-only effect; inactive = no such curve, though single readings can be large or run the other way;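 also: % of control where 0% means no effect; miR-21 action dims this reporter so a rising signal means less miR-21 action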
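HeLa cells endogenously expressing miR-21, stably carrying CMV-driven firefly luciferase with a downstream miR-21 binding site, 2000 cells/well. Titrations up to approximately 40 uM, 48 hours; luciferase luminescence read.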
Rango-impB inh = prevents formation of the Rango-importin beta complex | Rango CFP/YFP FRET sensor + importin beta, 45 min | 340,000 compounds, 0.031% hits | Potency, µM (top dose mostly 92.2 µM), for inactives: at the top dose inhibition of complex formation | AID 540263; active = rising FRET ratio curve, often small or poorly fitted; inconclusive = mostly compound fluorescence or quenching in the first reads; inactive = flat curves in all reads;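 also: potency is read from the fitted curve at half-maximal effect; 0% = DMSO wells and 100% = buffer wells lacking importin beta; nearly all actives have a fitted effect of over 15% in size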
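Inhibition scored from the CFP 486 nm/YFP 530 nm FRET ratio 45 min after adding 0.125 microM importin beta to 50 nM Rango biosensor preincubated 5 min with compound (room temperature, PBS with DTT, Tween-20, BSA). No-importin wells as positive control.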
Rango release inh = inhibitors of RanGTP-induced Rango-importin beta complex dissociation | 340,000 compounds, 0.071% hits | Potency, µM (highest dose often 46.1 µM), inactives show at the highest dose activity change, negative = inhibition | Biochemical FRET Rango-importin beta, RanGTP-induced dissociation | O95149+P62826 | AID 540253; active means falling FRET ratio curve, often poorly fitted, with flat reads before Ran was added; inconclusive means other falling curves, or compound fluorescence or quenching; inactive means flat or rising ratio curve;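 also: potency is read from the fitted curve at half-maximal effect; % of control where 0% means no effect; nearly all actives have a fitted effect of over 45% in size; -100% = wells without RanGTP and RCC1; the record marks most hits as doubtful in a second field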
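Quantitative HTS using a FRET biosensor: 0.1 uM Rango, 0.25 uM importin beta, 0.6 uM Ran, 2 mM GTP, 0.2 uM RCC1 final, PBS with DTT, Tween-20 and BSA. Post-read taken 45 min after Ran addition.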
* = called active by the depositor; ? = inconclusive; · = not tested or not shown; & = joins results of further samples. These rows are one share of the data, so the mix of outcomes need not match the whole.

Results follow in this order: GLA inh pH 4.5 | miR-21 reporter | Rango-impB inh | Rango release inh
O=C(CN1C(=O)NC2(CCc3ccccc32)C1=O)NCC(=O)Nc1ccc(F)cc1 (configuration not stated)
→ · | · | -3.4% | -6%
O=C(NCCCn1ccnc1)c1ccc(Br)o1
→ -2 | 2% | 0.6% | -6%
CCOC(=O)CS(=O)(=O)c1ccccc1
→ -7 | 0% | 0.4% | -7%
Clc1ccc(OCCOCCNCc2ccccc2)cc1Cl
→ · | 1% | 1.2% | 13%
Cc1ccc(NC(=O)CN(C)C(=O)c2nn(C)c(=O)c3ccccc23)cc1
→ -2 | 7% | 0.0% | 17%
O=C(Nc1cccc(-c2cn3ccccc3n2)c1)C1CC1
→ -3 | -25% | -1.8% | -4%
CCCCCC(=O)N1CC2(CC(c3cccc(NC(=O)[C@@H]4CCC(=O)N4)c3)=NO2)C[C@@H]1C(N)=O (some centres not stated)
→ 7 | -3% | 2.1% | 2%
CCCc1nc2oc3c(NCC(C)O)ncnc3c2c2c1CCCC2 (configuration not stated)
→ -1 | -8% | -1.7% | -13%
CCC(C(=O)NC1CCCCCC1)n1nc(C)c2c(C)n(-c3ccccc3)nc2c1=O (configuration not stated)
→ · | -12% | 0.8% | 8%
CC(/C=C1\SC(=S)N(CCC(=O)Nc2ccc(O)cc2)C1=O)=C\c1ccccc1
→ · | 2% | -0.7% | 6%
CCn1c(=O)cc(OCC(=O)NCc2ccc(C)o2)c2ccccc21
→ 1 | 1% | 5.2% | -1%
Cc1cc(C)c(C(=O)C2OC(=O)C(C)(C)C(=O)C2(C)C)c(C)c1 (configuration not stated)
→ -5 | -3% | -1.4% | -12%
Cc1ccc(NC(=O)c2cccc(N3C(=O)C4C5C=CC(C5)C4C3=O)c2)cc1C (configuration not stated)
→ · | 10% | -0.4% | ?
CC(=O)C1=C(c2ccccc2)NC(=O)NC1c1ccc(O)c(O)c1 (configuration not stated)
→ -12 | 5% | 0.9% | -9%
COc1cc(OC)c2c(-c3cccc(-c4ccc(C(C)=O)cc4)c3)cc(=O)oc2c1
→ -5 | · | -2.9% | 7%
Cc1ccc(NS(=O)(=O)c2ccc(-c3cnc(C4CC4)o3)cc2)cc1
→ · | 20% | -0.3% | 14%
Cc1cccc(N(C)S(=O)(=O)c2nnc(NC(=O)c3ccco3)s2)c1
→ · | -1% | 5.4% | -3%
COc1cc(OC)cc(C(=O)N2CCN(c3ccc(N4CCOCC4)nn3)CC2)c1
→ · | · | ? | -12%
COc1ccc(Cl)cc1NC(=O)Cn1nnc(C(=O)NCCc2ccc(OC)c(OC)c2)c1N
→ · | -1% | 1.5% | -3%
Cc1cc2nncn2c(Cc2ccccc2)n1
→ 4 | 0% | 1.1% | 0%
CCOC(=O)C1CCN(Cc2ccc(OC)c(C)c2OC)CC1
→ -2 | 0% | 7.4% | -4%
O=C(CSc1nc2ccccc2s1)CSc1nc2ccccc2s1
→ 4 | -2% | ? | 0%
O=C(CSCc1ccccc1)Nc1ccccc1C(=O)Nc1ccc(C(=O)O)cc1
→ -2 | -18% | -1.0% | -12%
CN1CCN(S(=O)(=O)c2cccc(C(=O)NCc3ccc(Cl)cc3)c2)CC1
→ -4 | 8% | -6.4% | 16%
CCCCc1c(O)nc(SCC(=O)Nc2ccc(C)cc2)n(-c2ccc(OC)cc2)c1=O
→ · | -1% | 0.9% | 1%
COC(=O)c1cccc(-n2c(=O)n(Cc3ccccc3)c(=O)c3[nH]cnc32)c1C
→ · | -9% | 1.8% | 4%
CN(C)S(=O)(=O)c1ccc(C(=O)OCC(=O)Nc2ccc(OC(F)F)cc2)cc1
→ 1 | 0% | -8.4% | -29%
COCC(C)NC(=O)CSc1nnc(-c2cccc(S(=O)(=O)N3CCCCC3)c2)o1 (configuration not stated)
→ -2 | -5% | 1.8% | -25%
CC1Cc2nc(SCC(=O)Nc3ccc4c(c3)OCO4)n(Cc3ccccc3)c(=O)c2S1 (configuration not stated)
→ -3 | -50% | -0.6% | 1%
COc1cccc(-c2nnc(-c3ccc(C)o3)o2)c1
→ -9 | -30% | 0.2% | -21%

Reprinted from the part before: 3 compounds, then new ones.
Results follow in this order: GLA inh pH 4.5 | miR-21 reporter | Rango-impB inh | Rango release inh
COCC(C)NC(=O)CSc1nnc(-c2cccc(S(=O)(=O)N3CCCCC3)c2)o1 (configuration not stated)
→ -2 | -5% | 1.8% | -25%
CC1Cc2nc(SCC(=O)Nc3ccc4c(c3)OCO4)n(Cc3ccccc3)c(=O)c2S1 (configuration not stated)
→ -3 | -50% | -0.6% | 1%
COc1cccc(-c2nnc(-c3ccc(C)o3)o2)c1
→ -9 | -30% | 0.2% | -21%
COc1ccc(N(C(=O)CNC(=O)c2ccco2)C(C(=O)NC2CCCC2)c2ccncc2)cc1 (configuration not stated)
→ -26 | 0% | 3.9% | 11%
CN1CCN(C(=O)c2ccccc2NC(=O)c2cccc(Cl)c2)CC1
→ · | 0% | 1.3% | -11%
COC(=O)c1cc(-c2ccc(OC)c(OC)c2)on1
→ · | -4% | 0.7% | 0%
COc1ccc(NC(=O)/C(=C/c2cccs2)NC(=O)c2ccco2)cc1
→ -7 | -2% | 0.6% | -2%
CCCSc1nc(C)cc(C)c1S(=O)(=O)c1ccccc1C
→ -1 | 1% | -0.9% | 35%
COc1cc(S(=O)(=O)NCc2ccncc2)ccc1Br
→ · | 14% | -0.4% | -4%
COc1ccc(CCNC(=O)CCC(=O)N2CC(C)Oc3ccc(Cl)cc32)cc1OC (configuration not stated)
→ · | 7% | -1.9% | 15%
c1ccc(/N=C2\N=C(Nc3ccccn3)c3ccccc32)nc1
→ · | · | -2.8% | 11%
O=C(N/N=C/c1ccccc1)c1[nH]c2ccc(Br)cc2c1-c1ccccc1
→ -1 | 21% | 0.6% | 0%
O=C(O)c1cccc(CSc2nnc(Cc3ccccc3)o2)c1
→ -2 | 0% | -1.0% | -6%
COc1ccc(CCNC(=O)CN(C)S(=O)(=O)c2ccc3nc(C)sc3c2)cc1OC
→ · | 1% | 0.4% | 7%
CCCCNc1c(-c2ccc(OC)c(Sc3ccc(OC)cc3)c2)nc2ccccn12
→ · | · | ? | ?
COc1ccc(NC(=O)c2cn(-c3ccccc3)nc2-c2cc3ccccc3o2)cc1
→ 0 | -7% | 5.1% | 11%
COc1ccccc1OCCNC(=O)C1CC(=O)N(Cc2ccccc2)C1 (configuration not stated)
→ · | · | 0.6% | 1%
C=C(C)CSc1nc2ccccc2[nH]1
→ -4 | -55% | 3.1% | -6%
Cc1ccccc1[C@@H](NC(=O)OC(C)(C)C)C(=O)OC(C)(C)C
→ · | · | 1.1% | 0%
Cc1ccnc(SCCn2c(N3CCC(C)CC3)nc3c2c(=O)[nH]c(=O)n3C)n1
→ -3 | -5% | -2.5% | 0%
CSc1cccc(NC(=O)CN(C)S(=O)(=O)c2ccc(F)cc2)c1
→ 3 | -7% | 0.0% | 12%
CCSc1nnc(NC(=O)NC(C)(C(F)(F)F)C(F)(F)F)s1
→ 2 | 27% | -0.1% | 33%
CC1C/C(=C/c2ccncc2)C(=O)/C(=C/c2ccncc2)C1 (configuration not stated)
→ -4 | ? | -2.7% | 0%
COc1ccccc1NS(=O)(=O)c1cc(NC(=O)c2sccc2C)ccc1N1CCCC1
→ -23 | -1% | -0.4% | -5%
COc1ccc(CN2CCN(C(=O)c3cccs3)CC2)cc1Br
→ -3 | 2% | -0.6% | 9%
CCOc1ccc(CCNC(=O)C2(c3ccccc3)CC2)cc1OCC
→ · | -3% | 0.4% | 2%
CC(CN1CCCC(C(N)=O)C1)c1ccccc1 (configuration not stated)
→ -2 | -5% | -5.9% | -13%
CCOC(=O)COc1nc2ccc(Br)cc2c(-c2ccccc2)c1C(C)=O
→ · | -4% | 4.0% | 1%
CNC(=S)Nc1cc(S(=O)(=O)Nc2cc(Cl)ccc2Cl)ccc1N1CCCC1
→ · | -6% | -0.7% | -1%
COc1cc(NC(=O)CN2C(=O)NC(C)(c3ccccc3)C2=O)c(C)cc1[N+](=O)[O-] (configuration not stated)
→ -1 | -4% | 3.2% | -7%
O=C(CCN1C(=O)C2CC=CCC2C1=O)NC1CCCCC1 (configuration not stated)
→ · | 1% | -1.1% | 1%
CCCc1cc(=O)[nH]c(SCC(=O)OCc2ccccc2)n1
→ -2 | -1% | -3.5% | -8%
CCN(CC)S(=O)(=O)c1cccc(C(=O)Nc2cc3oc4ccccc4c3cc2OC)c1
→ -7 | -1% | 6.0% | -18%

Limited to Rango release inh, for some of the entries so far:
Molecule	Rango release inh
CCOc1ccc(CCNC(=O)C2(c3ccccc3)CC2)cc1OCC	2%
CCCSc1nc(C)cc(C)c1S(=O)(=O)c1ccccc1C	35%
COc1ccc(CCNC(=O)CN(C)S(=O)(=O)c2ccc3nc(C)sc3c2)cc1OC	7%
COc1cc(S(=O)(=O)NCc2ccncc2)ccc1Br	-4%
CCCc1cc(=O)[nH]c(SCC(=O)OCc2ccccc2)n1	-8%
O=C(N/N=C/c1ccccc1)c1[nH]c2ccc(Br)cc2c1-c1ccccc1	0%
COc1ccc(NC(=O)c2cn(-c3ccccc3)nc2-c2cc3ccccc3o2)cc1	11%

The listing continues:
Results follow in this order: GLA inh pH 4.5 | miR-21 reporter | Rango-impB inh | Rango release inh
COc1cccc(/C=N/NC(=O)c2ccc(=O)n(C)c2)c1O
→ 2 | -4% | 1.7% | 6%
CCSc1nc2c(cnn2-c2ccc(C)c(C)c2)c(=O)[nH]1
→ -13 | -5% | -0.9% | -2%
CCOC(=O)c1cn(-c2ccccc2)nc1-c1cccnc1
→ 4 | -12% | -1.5% | 0%
OC(COCC1COc2ccccc2O1)CN1CCN(c2ccc(F)cc2)CC1 (configuration not stated)
→ 1 | 6% | ? | -8%
CCOc1ccccc1CN1CCNC(=O)C1CC(=O)NCc1nc(C)cs1 (configuration not stated)
→ · | -4% | 0.4% | -14%
CCN(CC)c1nc(Oc2ccc(C(=O)NN)cc2)nc(Oc2ccc(C(=O)NN)cc2)n1
→ · | -1% | 0.9% | -12%
O=C(O)C1C2C=CC(C2)C1C(=O)NC1CCN(Cc2ccccc2)CC1 (configuration not stated)
→ 2 | -3% | -0.4% | -10%
Cc1c(Br)c(C(F)(F)F)nn1CC(=O)N1CCCC1
→ 13 | -2% | 4.4% | 3%
O=C(Cn1cc2c(n1)CCCC2)NCCCN1CCCC1
→ -16 | -9% | 4.7% | -18%
Cc1cc(C)cc(-n2nc(C)cc2N)c1
→ -2 | -1% | -0.3% | 9%
CCn1c(C(=O)O)c(CC(=O)Nc2ccc(Br)cc2C)c2ccccc21
→ · | -2% | 3.3% | 0%
COC(=O)c1cc(-c2c(C)oc3cc(OC)ccc3c2=O)c(C)o1
→ 2 | -5% | -4.9% | 0%
CC1=CC(C)(C)Nc2ccc(OC(=O)CCN3C(=O)c4ccccc4C3=O)cc21
→ 1 | ? | -1.3% | -6%
CC(=O)C1(O)C(C)CC2C3CCC4CC(O)CCC4(C)C3=CCC21C (configuration not stated)
→ -2 | -2% | -1.0% | 7%
CS(=O)(=O)N(Cc1ccccc1)c1ccc(C(=O)Nc2ccccc2Sc2ccccc2)cc1
→ -13 | 3% | 0.3% | -2%
CCCn1ncc(CN2CCN(Cc3ccc(C)o3)C(CCO)C2)c1C (configuration not stated)
→ -5 | 2% | -1.3% | -15%
Cc1cc(C(=O)OCC(=O)c2ccc3c(c2)NC(=O)CO3)c2ccccc2n1
→ -1 | 2% | -7.0% | 14%
CC(=O)Nc1ccc(Nc2nnc(-c3ccc(C)c(S(N)(=O)=O)c3)c3ccccc23)cc1
→ · | -4%&-7% | 2.1% | ?
CC(OC(=O)c1cccnc1)C(=O)Nc1ccc2c(c1)OCO2 (configuration not stated)
→ 2 | -3% | -0.5% | 17%
O=C(Nc1cccc(F)c1)/C(=C\c1ccco1)NC(=O)c1ccco1
→ · | -3% | -0.5% | 13%
Cc1c(C(=O)NC(C)C)sc2ncn(CC(=O)N3CCC(C)CC3)c(=O)c12
→ -3 | -1% | -1.4% | 19%
Cc1ccc(NS(=O)(=O)c2cc(C(=O)O)ccc2Cl)cc1
→ 3 | -8% | -4.8% | 1%
